Sfp inh: qHTS Assay for Inhibitors of Bacillus subtilis Sfp phosphopantetheinyl transferase (PPTase). 4'-phosphopantetheinyl transferase ffp (Bacillus subtilis), Q9F4F7. Biochemical Sfp PPTase activity, qHTS. Potency, µM, for the others: max response, negative = inhibition, usual class: inhibitors. 3.5% of 310,000 active. AID 1490, 2009; active = well fitted inhibition curve with a large enough effect; inconclusive = small, poorly fitted or top-dose-only effect, or another doubt; inactive = no such curve, though single readings can be large or run the other way;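 note: the enzyme is Sfp with the accession as filed and its product quenches rhodamine fluorescence; potency is the fitted concentration of half-maximal effect; 0% = enzyme reaction without inhibitor and -100% = no enzyme wells; top concentration of the series not given in the record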
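With Hepes-Na pH 7.6 buffer containing 10 mM MgCl2, Sfp (15 nM) modified BHQ-2-YbbR (12.5 uM) using rhodamine-CoA (5 uM). Two reads 30 minutes apart at 525/598 nm yielded each well's rate.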
Menin MLL FP FL: qHTS Assay for Inhibitors Targeting the Menin-MLL Interaction in MLL Related Leukemias: Competition With Fluorescein Labeled MLL-derived Peptide. Fluorescence polarization, fluorescein-MLL peptide displacement from menin. FP activity change, % at 61.4 µM. 290,000 tested, under 10 active. AID 1766, 2009; inconclusive = falling polarisation curve, or a change in total fluorescence; inactive = total fluorescence flat and polarisation flat or rising; no compound was filed as active; the % refers to the polarisation; negative = inhibition;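 note: % of control where 0% means no effect; inhibitors lower the polarisation; unlabelled MLL peptide was the positive control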
TRPV1 potentiator: HTS Assay for Compounds that Act as Potentiators of the Vanilloid Receptor 1 | potentiation, % at 8.33 µM | Transient receptor potential cation channel subfamily V member 1 (Homo sapiens), Q8NER1 | 0.02% of 320,000 active | TRPV1-expressing cells, Fluo-8 calcium influx, capsaicin EC20 potentiation; host cell line not named in the record; control for the full effect not named in the record | AID 540277, 2011; active means potentiation above 80%; inconclusive means 30% to 80%; inactive means below 30%; note: 0% is about no effect
Target sequence (Q8NER1 whole entry, looked up): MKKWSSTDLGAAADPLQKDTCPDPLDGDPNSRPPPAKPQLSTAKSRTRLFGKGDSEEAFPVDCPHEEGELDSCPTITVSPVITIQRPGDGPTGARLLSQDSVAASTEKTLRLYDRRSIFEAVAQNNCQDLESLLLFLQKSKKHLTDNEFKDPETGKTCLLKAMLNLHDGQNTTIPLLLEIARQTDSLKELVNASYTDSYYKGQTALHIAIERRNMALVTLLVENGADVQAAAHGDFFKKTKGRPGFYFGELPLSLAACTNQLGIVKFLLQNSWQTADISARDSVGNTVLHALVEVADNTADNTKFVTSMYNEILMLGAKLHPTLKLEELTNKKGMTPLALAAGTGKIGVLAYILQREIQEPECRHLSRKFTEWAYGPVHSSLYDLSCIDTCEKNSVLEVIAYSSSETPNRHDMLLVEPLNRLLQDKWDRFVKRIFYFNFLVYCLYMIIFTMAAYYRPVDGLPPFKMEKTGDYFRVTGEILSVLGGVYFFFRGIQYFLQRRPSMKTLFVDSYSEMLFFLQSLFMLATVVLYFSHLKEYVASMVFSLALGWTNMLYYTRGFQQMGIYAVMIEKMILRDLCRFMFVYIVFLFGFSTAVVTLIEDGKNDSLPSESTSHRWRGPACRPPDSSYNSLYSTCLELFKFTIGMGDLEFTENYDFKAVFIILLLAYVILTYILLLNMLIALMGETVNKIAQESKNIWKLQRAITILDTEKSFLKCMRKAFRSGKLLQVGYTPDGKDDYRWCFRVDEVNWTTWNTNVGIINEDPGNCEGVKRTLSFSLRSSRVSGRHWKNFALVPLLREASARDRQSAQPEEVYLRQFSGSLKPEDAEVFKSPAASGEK
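Fluo-8 calcium influx in TRPV1-expressing cells, kinetic read (ex 480/em 520 nm). Compound added and read 3 min for agonist activity, followed by capsaicin at EC20 final and 2 min further read for enhancement.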
Active calls of the source: *; ? = inconclusive; . = no result given; & = joins results of further samples; [ ] = dose if it differs, or a comment.

SMILES	Sfp inh	Menin MLL FP FL	TRPV1 potentiator
Cc1ccc(S(=O)(=O)N[C@H]2COC(=O)[C@@H](Cc3ccccc3)NC(=O)[C@@H](C)COC(=O)C/C=C\[C@@H]2C)cc1	19.1%&7.4%	-3.2&0.1[11.7 µM]	.
COC(=O)NC/C=C\c1nc(CCCO)co1	8.1%	-1.8[11.7 µM]	.
Nc1sc2c(c1C(=O)c1ccc(Cl)cc1)CCCC2	9.7%	1.3	.
C=CC[C@](C)(Nc1ccc(OC)cc1)C(=O)OCC	13.7%	0.9	.
CN1CC[C@@]2(CCCN(C(=O)c3cc(C(F)(F)F)cc(C(F)(F)F)c3)C2)C1	22.2%	1.2	.
C=CCN1C(=CCO)[C@H]2C[C@H]3[C@@H]1CC[C@@]31c3ccccc3N3C=C4[C@@H]5N(/C=C/2[C@H]31)c1ccccc1[C@]51CC[C@H]2[C@H]1C[C@@H]4/C(=C/CO)N2CC=C	25.1%	5.0[24.8 µM]	.
Cn1c(=O)c(-c2cc(F)cc(F)c2)nc2cnc(N3CCOCC3)nc21	3.2%	-7.7	.
CC(C)CN(C[C@@H](O)[C@H](Cc1ccccc1)NC(=O)O[C@H]1CO[C@H]2OCC[C@H]21)S(=O)(=O)c1ccc(N)cc1	11.8%	0.8	.
COC(=O)C1=C(C(=O)OC)[C@@H]2N(C)c3ccccc3[C@@]23C[C@@H](C(=O)OC)N(S(=O)(=O)c2ccc(C(F)(F)F)cc2)C3=N1	-6.9%	-2.6[11.7 µM]	.
CCNc1ncc2nc(-c3cc(F)cc(F)c3)c(=O)n(CCc3ccccc3)c2n1	1.4%	?	.
O=C(O)c1nc2cc(Cl)c(Cl)cc2[nH]c1=O	17.1%	1.9	.
CN(C)C(=O)c1ccc(-c2nccc(NCc3cccs3)n2)cc1	5.8%	-4.3	.

Only Sfp inh and TRPV1 potentiator (2 entries from above):
molecule	Sfp inh	TRPV1 potentiator
CN1CC[C@@]2(CCCN(C(=O)c3cc(C(F)(F)F)cc(C(F)(F)F)c3)C2)C1	22.2%	.
C=CCN1C(=CCO)[C@H]2C[C@H]3[C@@H]1CC[C@@]31c3ccccc3N3C=C4[C@@H]5N(/C=C/2[C@H]31)c1ccccc1[C@]51CC[C@H]2[C@H]1C[C@@H]4/C(=C/CO)N2CC=C	25.1%	.

Remaining list, next part.
SMILES	Sfp inh	Menin MLL FP FL	TRPV1 potentiator
CN(C)c1ccc(-c2cc(N(C)Cc3ccco3)ncn2)cc1	-15.8%	9.9	.
C=CCOC[C@@H]1CN2[C@H](c3ccc(Br)cc3)[C@@H](C)CC[C@H]2C(=O)O1	12.9%	-2.8	.
CO/N=C1\CN(c2nc3c(cc2F)c(=O)c(C(=O)O)cn3C2CC2)CC1CN (stereo not drawn)	9.7%	-1.0	.
CO[C@H]1COC(=O)[C@H]2CCCN2C(=O)[C@@H](C)COC(=O)C/C=C\[C@@H]1C	10.7%	-4.0[11.7 µM]	.
CC(=O)OCC(CO)OC(C)=O (stereo not drawn) (tested in a mixture with another compound)	0.2%	-8.4	.
Cc1ccccc1Nc1oc(-c2ccccc2)nc1-c1cccs1	-16.4%	?	.
Cc1noc(C)c1C(=O)N1CCC2(CC1)CCN(c1cccc(-c3ccccc3)c1)CC2	?	-0.3	.
Cc1cccc(CNc2nc(-c3ccc(C(=O)N(C)C)cc3)nc3ccccc23)c1	-7.2%	4.6	.
O[C@@](CCN1CCCCC1)(c1ccccc1)[C@@H]1C[C@H]2C=C[C@@H]1C2	-0.1%	-1.9[24.8 µM]	.
COCCN(CCOC)c1nc(C)nc2c1nc(-c1ccccc1)n2CCN(C)C	13.6%	0.2	.
NCCCC(N)CC(=O)NCC1NC(=O)C(CO)NC(=O)C(N)CNC(=O)C(C2CCN=C(N)N2)NC(=O)/C(=C/NC(N)=O)NC1=O (stereo not drawn)	0.6%	-6.2	.
CCCCCCCC/C=C\CCCCCCCC(=O)N[C@@H](CO)Cc1ccc(O)cc1	44.2%[activator]	?	.
COc1cccc(-c2cncnc2NCc2ccccc2OC)c1	2.9%	-3.5	.
O=C(Nc1cccc(F)c1)N1CC2(CCN(C(=O)c3ccco3)CC2)C1	-12.7%	-0.1	.
COC(=O)C(C)Sc1nnc(Cc2cc(=O)[nH]c(=O)[nH]2)n1-c1ccc(Cl)cc1 (stereo not drawn)	-8.5%	?	.
FC(F)(F)C(F)(F)C(F)(F)C(F)(F)C(F)(F)F	6.3%	1.5	.
O=C1CCC(=O)N1CO	9.5%	1.9	.
C[N+]1(C)CCc2cc3c(cc2[C@@H]1[C@@H]1C(=O)Oc2c1ccc1c2OCO1)OCO3	18.0%&-4.4%	-9.3&-1.4	.
CCC1=C2CC[C@H]3C(=O)NC(=O)[C@H]3[C@H]2[C@@]2(Cc3ccccc3)C(=NCc3ccccc3)OC(=O)N2C1=O	10.2%	0.2	.
CCOc1ccccc1-c1nnc2n1N=C(c1cc(OC)cc(OC)c1)CS2	?	2.2	.
Cn1cccc1C(=O)N1CCC2(CC1)CCN(C(c1ccccc1)c1ccccc1)CC2	20.5%	-1.7	.
COc1ccc2c(c1)C(=O)[C@H](OC(=O)NS(=O)(=O)c1ccc(C)cc1)[C@@H](c1ccc(OC)c(Br)c1)O2	18.0%	6.8	.
CN(C)Cc1ccccc1-c1nc(NCc2ccccc2)c2ccccc2n1	-6.1%	12.0	.
COC(=O)C1=C(C(=O)OC)[C@@H]2N(Cc3ccccc3)c3ccccc3[C@@]23C[C@@H](C(=O)OC)N(C(=O)c2ccco2)C3=N1	9.0%	1.6[11.7 µM]	.
COc1ncc2nc(-c3cc(F)cc(F)c3)c(=O)n(C)c2n1	25.4%	1.2	.
Cc1cccc(CNc2cc(-c3cccc(NS(C)(=O)=O)c3)ncn2)c1	-6.7%	1.7	.
COc1ccccc1N1CCN(CCn2c(=O)[nH]c3c([nH]c4ccccc43)c2=O)CC1	12.2%&14.9%&15.4%	?	.
c1ccc(C(c2ccccc2)N2CCC3(CCNCC3)CC2)cc1	-14.1%	-1.4	.
O=C1NC(Cc2ccccc2)c2nc3ccccc3c(=O)n2-c2ccc(Cl)cc21 (stereo not drawn)	.	.	11.5
Cc1cccc(-c2ccc3ncnc(NCc4cccnc4)c3c2)c1	.	.	-17.2
CCC(=O)NC(C)c1cc(Cl)c2ccccc2c1O (stereo not drawn)	.	.	3.4
O=C(COC(=O)CNC(=O)C1CCCCC1)Nc1ccccc1Cl	.	.	-2.4
Oc1cccc2c(-c3nn[nH]n3)ccnc12	.	.	0.2
CC(C)(C)n1ncc2c(=O)n(Cc3c(Cl)cccc3Br)cnc21	.	.	?
N#Cc1ccc(-c2ccc(C3Nc4ccccc4C(=O)N3O)o2)cc1 (stereo not drawn)	.	.	?
CC(=O)NC(c1ccco1)c1cc(Cl)c2ccccc2c1O (stereo not drawn)	.	.	?
Cc1ccc(-c2csc(N3CCC(C(N)=O)CC3)n2)cc1	.	.	-44.8
COc1ccc2c(c1)[C@H]1[C@H](CO2)[C@H](c2ccccc2)[C@]2(C)C(=O)N[C@@H](C)C(=O)N12	.	.	1.8
CC(C)COC(=O)COc1cc(Cl)c(Cl)cc1Cl	.	.	-10.3
CN(C)c1ccc(-c2cc(O)c3ncccc3c2)cc1	.	.	-7.1
O=C(COC(=O)CNC(=O)C1CCCCC1)Nc1cc(C(F)(F)F)ccc1Cl	.	.	25.0
O=C1c2ccccc2NC(c2ccc(-c3cccc(F)c3)o2)N1O (stereo not drawn)	.	.	3.6
O=C(c1ccc2c(c1)OCCO2)N1CCN(S(=O)(=O)c2c(F)cccc2F)CC1	.	.	12.9
COc1ccc(NC(=O)c2nc[nH]c2C(=O)NCCCCCNC(=O)OC(C)(C)C)cc1	.	.	22.3
CNc1ncnc2ccc(-c3c(C)noc3C)cc12	.	.	5.8
CCC(=O)NC(c1ccco1)c1cc(Cl)c2cccnc2c1OC (stereo not drawn)	.	.	1.6
C=CCn1cnnc1SCC(=O)Nc1cccnc1Cl	.	.	-25.5
Nc1scc2c(C(=O)O)nn(-c3ccccc3)c(=O)c12	.	.	5.9
Cc1cccc(CNc2ncnc3ccc(-c4ccc5c(c4)OCCO5)cc23)c1	.	.	-15.1
Fc1cccc(CNc2ncnc3ccc(-c4ccc5c(c4)OCO5)cc23)c1	.	.	-8.2
O=C(c1ccccc1)N(C(=O)c1ccccc1)c1ncnc2c1C(c1ccccc1)c1c(ccc3ccccc13)O2 (stereo not drawn)	.	.	-1.3
O=S(=O)(NCCCCCNS(=O)(=O)c1c(F)cccc1F)c1ccc2c(c1)OCCO2	.	.	2.1
CC(=O)NC(c1ccco1)c1cc(Cl)c2ccc(Cl)nc2c1O (stereo not drawn)	.	.	16.3
O=C(Cc1ccc(Br)cc1)Nc1ccc(S(=O)(=O)N2CCCC2)cc1	11.4%	.	-6.9
CC(OC(=O)c1ccc(Cl)c(S(=O)(=O)N2CCCC2)c1)C(=O)NC1CCCCC1C (stereo not drawn)	15.2%	.	-22.0
CCc1ccc(NC(=O)Cc2ccc(OC)cc2)cc1	8.2%	.	-21.6
COC(=O)C1CCCCN1C(=O)c1cc(COc2cccc3cnccc23)on1 (stereo not drawn)	10.5%	.	-0.8
Cc1scc(C(=O)N/N=C/c2ccc([N+](=O)[O-])o2)c1C	14.0%	.	-0.9
COc1ccc(OC)c(C2C(C(=O)c3ccco3)=C(O)C(=O)N2CCN2CCOCC2)c1 (stereo not drawn)	11.2%	.	2.2
COc1ccc(N2CCN(C(=O)c3ccc4c(c3)NC(=O)C(CSCc3cccc(F)c3)N4)CC2)cc1 (stereo not drawn)	56.2µM*	.	-8.3
(cont.)
SMILES	Sfp inh	Menin MLL FP FL	TRPV1 potentiator
COc1ccc(-c2cc(=O)oc3cc(OCC(=O)c4cccc([N+](=O)[O-])c4)ccc23)cc1	0.9%	.	9.3
CCc1ccc(CNC(=O)c2ccc3nc(C4CCCCC4)oc3c2)nc1	-0.7%	.	-14.8
Cc1nnc(N2C(=O)C(=O)/C(=C(/O)c3ccc4c(c3)OCCO4)C2c2ccc([N+](=O)[O-])cc2)s1 (stereo not drawn)	-6.5%	.	-5.9
CCCc1cc(=O)oc2c3c(c(Cl)cc12)OCN(CCCO)C3	-3.3%	.	4.1

Sorted by length of the SMILES (rising): part of the list above
SMILES	Sfp inh	Menin MLL FP FL	TRPV1 potentiator
C=CCn1cnnc1SCC(=O)Nc1cccnc1Cl	.	.	-25.5
CNc1ncnc2ccc(-c3c(C)noc3C)cc12	.	.	5.8
CCc1ccc(NC(=O)Cc2ccc(OC)cc2)cc1	8.2%	.	-21.6
Nc1scc2c(C(=O)O)nn(-c3ccccc3)c(=O)c12	.	.	5.9
CCC(=O)NC(c1ccco1)c1cc(Cl)c2cccnc2c1OC (stereo not drawn)	.	.	1.6
CCCc1cc(=O)oc2c3c(c(Cl)cc12)OCN(CCCO)C3	-3.3%	.	4.1
CC(=O)NC(c1ccco1)c1cc(Cl)c2ccc(Cl)nc2c1O (stereo not drawn)	.	.	16.3
CCc1ccc(CNC(=O)c2ccc3nc(C4CCCCC4)oc3c2)nc1	-0.7%	.	-14.8
Cc1scc(C(=O)N/N=C/c2ccc([N+](=O)[O-])o2)c1C	14.0%	.	-0.9
Fc1cccc(CNc2ncnc3ccc(-c4ccc5c(c4)OCO5)cc23)c1	.	.	-8.2
Cc1cccc(CNc2ncnc3ccc(-c4ccc5c(c4)OCCO5)cc23)c1	.	.	-15.1
O=S(=O)(NCCCCCNS(=O)(=O)c1c(F)cccc1F)c1ccc2c(c1)OCCO2	.	.	2.1
COc1ccc(NC(=O)c2nc[nH]c2C(=O)NCCCCCNC(=O)OC(C)(C)C)cc1	.	.	22.3
COc1ccc(OC)c(C2C(C(=O)c3ccco3)=C(O)C(=O)N2CCN2CCOCC2)c1 (stereo not drawn)	11.2%	.	2.2
COc1ccc(-c2cc(=O)oc3cc(OCC(=O)c4cccc([N+](=O)[O-])c4)ccc23)cc1	0.9%	.	9.3
COc1ccc(N2CCN(C(=O)c3ccc4c(c3)NC(=O)C(CSCc3cccc(F)c3)N4)CC2)cc1 (stereo not drawn)	56.2µM*	.	-8.3
O=C(c1ccccc1)N(C(=O)c1ccccc1)c1ncnc2c1C(c1ccccc1)c1c(ccc3ccccc13)O2 (stereo not drawn)	.	.	-1.3
Cc1nnc(N2C(=O)C(=O)/C(=C(/O)c3ccc4c(c3)OCCO4)C2c2ccc([N+](=O)[O-])cc2)s1 (stereo not drawn)	-6.5%	.	-5.9

Some of the compounds tested (hit frequency here may not be typical).
